High-throughput results (PubChem)
HPGD block – inhibitors of human 15-hydroxyprostaglandin dehydrogenase (HPGD); P15428; purified HPGD, NADH fluorescence kinetic, PGE2 substrate; Potency, µM, without a hit: top-dose activity change, negative = inhibition, actives largely listed as inhibitors; 150,000 compounds, 4.3% hits; active = well fitted inhibition curve with a large enough effect (not every such curve was filed as active); inconclusive = small, poorly fitted or top-dose-only effect, or another doubt; inactive = no such curve, though single readings can be large or run the other way;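 note: top concentration of the series not given in the record; plate controls included wells without enzyme; inactives centre near -10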
Target sequence (P15428 whole entry, looked up): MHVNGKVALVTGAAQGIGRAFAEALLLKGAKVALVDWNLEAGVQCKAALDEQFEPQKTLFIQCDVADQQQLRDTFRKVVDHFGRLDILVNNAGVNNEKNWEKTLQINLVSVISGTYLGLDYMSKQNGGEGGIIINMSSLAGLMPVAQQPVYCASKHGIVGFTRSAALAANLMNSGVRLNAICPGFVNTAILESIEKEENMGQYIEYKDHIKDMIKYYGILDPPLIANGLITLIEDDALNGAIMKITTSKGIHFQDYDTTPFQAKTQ
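NADH formation kinetics: reaction with 30 uM PGE2 and 1 mM NAD+ (final), 20 nM enzyme, Tris-HCl pH 8 with Tween 20, after 15 min compound preincubation at room temperature. Fluorescence change, last versus first of five reads.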
The depositor's hits bear a star; u = inconclusive; & = joins results of further samples. % is set by controls: 0 for no effect and ±100 for the full control effect; potency is the fitted concentration of half-maximal effect.

HPGD block | smiles
-15% | O=C(NC1=NCCS1)C1Cc2ccccc2CN1C(=O)c1ccccc1 (configuration not stated)
-12% | CCOc1ccc(NC(=O)CCNS(=O)(=O)c2ccc3c(c2)CCC(=O)N3)cc1
-14% | Cc1cc(NS(=O)(=O)c2ccc(NC(=S)NC(=O)c3ccc(Br)cc3)cc2)no1
-13% | Cc1ccc(N=Nc2c(N)nn(-c3ccccc3)c2N)cc1
-13% | CCCc1nnc(NC(=O)c2cc3ccccc3oc2=O)s1
-10% | Cc1ccc(CSc2nnc(NC(=O)C3COc4ccccc4O3)s2)cc1 (configuration not stated)
-18% | CC1CCc2c(nc3ncnn3c2N2CC(C)OC(C)C2)C1 (configuration not stated)
4% | Cn1c(CCNC(=O)c2ccco2)nc2cc(NC(=O)C3CCCCC3)ccc21
-6% | CCC(=O)Nc1ccc(NC(=O)c2ccco2)cc1
-10% | C=CCn1c(=O)c2ccccc2n2c(SCC(=O)/C(C#N)=C(\C)N)nnc12

Following part
HPGD block | smiles
-23% | CCSc1nnc(Nc2ccccc2)s1
-15% | COc1ccc2c(c1)C(SCC(=O)NCCc1ccccc1)CC(C)(C)O2 (configuration not stated)
-9% | O=C(CC1(C(F)(F)F)OCCO1)Nc1ccc2c(c1)OCO2
-20% | Cc1ccc2nc(N/N=C/c3ccccc3C#N)nc(-c3ccccc3)c2c1
-10% | CCOC(=O)C1=C(C)NC2=C(C(=O)CCC2)C1c1ccc(O)c(OCC)c1 (configuration not stated)
-16% | CCCc1nc2n[nH]c(N)c2c2c1CCC2
u | COCC(=O)Nc1c(C(=O)Nc2ccccc2OC)oc2ccccc12
-14% | COc1ccc(CNc2nc(NCc3ccc(OC)cc3)n(S(C)(=O)=O)n2)cc1
-5% | CC1CCCCC1NC(=O)COC(=O)c1ccccn1 (configuration not stated)
-16% | O=C(Cn1cnc2c(nnn2Cc2ccccc2F)c1=O)N1CCN(c2ccccc2)CC1

Carrying on.
HPGD block | smiles
-2% | Cc1ccc(OCCNC(=O)C2CC(=O)N(c3ccc(C)cc3)C2)cc1 (configuration not stated)
u | CCCCCC(=O)Nc1ccc2oc(-c3ccncc3)nc2c1
-10% | CC(=O)NCCc1nc2ccccc2[nH]1
-19% | CC(=O)OCc1cc2cc(C)ccc2[nH]c1=O
1% | Cn1c(=N)n(CC(O)c2cccc3ccccc23)c2ccccc21 (configuration not stated)
-13%&-15%&-18%&-16%&-10% | CN1C(C(=O)Nc2ccccn2)=C(O)c2ccccc2S1(=O)=O
-2% | COC(=O)[C@H]1[C@@H](C)N(Cc2ccccc2)C(=O)N[C@H]1c1ccccc1
-4% | C=CCn1c(CC#N)nnc1N1CCOCC1
2% | CCOc1ccccc1N(CC(=O)N1CCOCC1)S(=O)(=O)c1ccc(SC)cc1
-3% | O=C(CN1CCOCC1)N1CCN(S(=O)(=O)c2ccccc2)C1c1ccccc1 (configuration not stated)

3 compounds from above, ordered by number of heavy atoms, low to high:
HPGD block | smiles
-4% | C=CCn1c(CC#N)nnc1N1CCOCC1
u | CCCCCC(=O)Nc1ccc2oc(-c3ccncc3)nc2c1
-2% | COC(=O)[C@H]1[C@@H](C)N(Cc2ccccc2)C(=O)N[C@H]1c1ccccc1

Remaining list, next part.
HPGD block | smiles
-9% | O=C(CN(Cc1ccccc1F)C(=O)c1ccco1)NCc1ccc(F)cc1
-21% | CCSc1oc(-c2ccco2)nc1S(=O)(=O)c1ccccc1
-7% | CCc1cc(=O)oc2cc(OC(C)C(=O)O)c(Cl)cc12 (configuration not stated)
0% | COc1ccc(CNCCC(c2ccc(OC(C)C)cc2)C(C)C)cc1OC (configuration not stated)
-26% | O=C1CCCC2=C1C(c1cccs1)n1nc(SCc3ccccc3F)nc1N2 (configuration not stated)
3% | OC(CCN1CCOCC1)(c1ccc(Cl)cc1)C1CCCCC1 (configuration not stated)
-6% | CCS(=O)(=O)N1CCC(C(=O)NCCc2ccc(OC)c(OC)c2)CC1
-5% | C=CCSc1nc2c(c(=O)n(C)c(=O)n2C)n1CC
-20% | N#Cc1ccc(N2Cc3ccccc3C2=NC(=O)c2cccnc2Cl)cc1
-4% | CCCCCCCCCCCCCCCCOCC(COP(=O)([O-])OCC[N+](C)(C)C)OC (configuration not stated)

Carrying on.
HPGD block | smiles
-4% | CCn1nnnc1SCC(=O)N(C1CCCCC1)C1CCCCC1
-18% | COc1ccc2nc(/N=C(\N)NC(=O)Nc3ccccc3)nc(C)c2c1
-10% | CCOc1ccc(NC(=S)NC(=O)c2c(Cl)cnn2CC)c([N+](=O)[O-])c1
-10% | Clc1ccc(CON/C=N/c2ncnc3sccc23)cc1
u | Cc1cc2cc(CNC(=O)c3ccc(C)c([N+](=O)[O-])c3)ccc2[nH]1
u | C=C(C)COc1ccc(-c2n[nH]c(C)c2-c2ccc(Br)cc2)c(O)c1
-4% | CC(C)CCn1nc(C(=O)Nc2nc3c(s2)CCCC3)c2ccccc2c1=O
u | COc1ccc(/C=C/c2nc(-c3ccccc3O)n[nH]2)cc1OC
-14% | CCOC(=O)c1ccc(NC(=O)CN(c2ccc(C)cc2)S(=O)(=O)c2c(C)nn(C)c2C)cc1
6% | CCOC(=O)CC(NC(=O)C1c2ccccc2Oc2ccccc21)c1ccc(C)cc1 (configuration not stated)

(listing goes on)
HPGD block | smiles
-7% | Cc1nn(C)c(C)c1N1C(=O)c2cccc3c(N)ccc(c23)C1=O
u | Oc1ccccc1/C=N/NC1=NCCCCC1
2% | COCCCNC(=O)CC(NS(=O)(=O)c1ccc(Cl)cc1)c1ccco1 (configuration not stated)
-10% | COc1cccc(-n2c(SCC(N)=O)nnc2-c2ccncc2)c1
1% | Nc1nonc1-n1nncc1-c1ccccc1
-10% | Cc1ccc(-c2nnc3c4ccccc4c(C)nn23)cc1NC(=O)CN1CCOCC1
-7% | CCc1cc2c(NCCN3CCCCC3)ncnc2s1
-10% | CCOc1ccc(N2C(=O)CSC2c2ccncc2)cc1 (configuration not stated)
-28% | CCc1cc(-c2n[nH]c(=S)n2CC)cs1
18µM* | Cc1ccccc1CSCC(=O)NC1CCCC1

Additional records:
HPGD block | smiles
-5% | COc1ccc(-c2noc(CCC(=O)N3CCN(Cc4ccccc4)CC3)n2)cc1
-4% | CCC(C)(C)c1ccc(OCCN2C(=O)NC(C)(C)C2=O)cc1
-1% | O=C(CCN1CCc2ccccc2C1)Nc1ccc(F)cc1
u | O=c1[nH]c(NCCO)nc2c1C1(CCCC1)Cc1ccccc1-2
-12% | CCC1CCCCN1C(=O)c1noc(C(C)C)c1[N+](=O)[O-] (configuration not stated)
-14% | Cc1ccc(NC(=S)/C(=C(\[O-])c2ccc(C)c([N+](=O)[O-])c2)[n+]2ccccc2)cc1C
-5% | COC(=O)C1=C(C)C(c2ccc(OC)cc2OC)NC(=O)N1 (configuration not stated)
-1% | CC(C)NC(=S)N1CCN(S(C)(=O)=O)CC1
-6% | Cc1cnc(C(=O)OCC(=O)NC2CCCC(C)C2C)cn1 (configuration not stated)
-7% | O=C(CCCc1ccccc1)NC1CCSC1=O (configuration not stated)

(continued)
HPGD block | smiles
-7% | CCOc1cc(C2/C(=C(\O)c3cc(C)ccc3C)C(=O)C(=O)N2CCN(C)C)ccc1O (configuration not stated)
-6% | COc1cc(OC)cc(C(=O)Nc2ccccc2C(=O)N2CCCC2)c1
-5% | COCCCNC(=S)NC(=O)c1ccccc1
-9% | O=C(/C=C/c1ccc(OCCCF)cc1)NCc1cccc(Cl)c1
-5% | NC(=O)CN1CCOCCOCCOCCOCCOCC1
-5% | COc1ccccc1OCC(=O)Nc1ccc(C(N)=O)cc1
u | Cc1cc(=O)oc2cc(OC(C)C(=O)N3CCOCC3)ccc12 (configuration not stated)
-9% | N#CCCN1CCN(S(=O)(=O)c2ccc(C#N)cc2)CC1
-14% | CCOC(=O)C1CCN(C(=O)c2c(C)oc3c2C(=O)c2ccccc2C3=O)CC1
-6% | COc1cccc(NC(=O)C2CC(=O)OC23CCOC(C)(C)C3)c1 (configuration not stated)

Ordered by SMILES length (largest number first): some entries from above
HPGD block | smiles
-14% | CCOC(=O)C1CCN(C(=O)c2c(C)oc3c2C(=O)c2ccccc2C3=O)CC1
2% | CCOc1ccccc1N(CC(=O)N1CCOCC1)S(=O)(=O)c1ccc(SC)cc1
u | C=C(C)COc1ccc(-c2n[nH]c(C)c2-c2ccc(Br)cc2)c(O)c1
-18% | COc1ccc2nc(/N=C(\N)NC(=O)Nc3ccccc3)nc(C)c2c1
-10% | Cc1ccc(CSc2nnc(NC(=O)C3COc4ccccc4O3)s2)cc1 (configuration not stated)
-13%&-15%&-18%&-16%&-10% | CN1C(C(=O)Nc2ccccn2)=C(O)c2ccccc2S1(=O)=O
1% | Cn1c(=N)n(CC(O)c2cccc3ccccc23)c2ccccc21 (configuration not stated)
-9% | N#CCCN1CCN(S(=O)(=O)c2ccc(C#N)cc2)CC1
u | CCCCCC(=O)Nc1ccc2oc(-c3ccncc3)nc2c1
-5% | C=CCSc1nc2c(c(=O)n(C)c(=O)n2C)n1CC
-1% | O=C(CCN1CCc2ccccc2C1)Nc1ccc(F)cc1
-1% | CC(C)NC(=S)N1CCN(S(C)(=O)=O)CC1
-5% | CC1CCCCC1NC(=O)COC(=O)c1ccccn1 (configuration not stated)
-5% | NC(=O)CN1CCOCCOCCOCCOCCOCC1
-7% | O=C(CCCc1ccccc1)NC1CCSC1=O (configuration not stated)
-5% | COCCCNC(=S)NC(=O)c1ccccc1

Next section.
HPGD block | smiles
-9% | Cc1nnc(NC(=O)Oc2ccccc2)s1
-6% | CCOC(=O)C1CCCN(S(=O)(=O)c2cccs2)C1 (configuration not stated)
-12% | Cc1cccc(N(C(=O)CNC(=O)c2cccs2)C(C(=O)NC2CCCC2)c2cccnc2)c1 (configuration not stated)
-1% | CCOc1ccc(-n2c(Cc3cc(=O)[nH]c(=O)[nH]3)nnc2SCc2cccnc2)cc1
u | COc1ccc(OC)c2[nH]c(=O)c(CCNC(=O)c3cc4ccccc4o3)cc12
-4% | COc1cc(/C=C(/C#N)c2ccc(F)cc2)ccc1Oc1ccc([N+](=O)[O-])cn1
-16% | Cc1cccc(C(=O)Nc2nnc(Cc3c[nH]c4ccccc34)s2)c1
-21% | CCN(CCCNC(=O)CN(C)S(=O)(=O)c1cccc2nsnc12)c1ccccc1
20µM* | Cc1ccc(C(=O)N2CCCC2)cc1Br
-25% | O=S(=O)(Nc1ccc(Cc2ccncc2)cc1)c1ccc(Cl)s1

(list continues)
HPGD block | smiles
-8% | COC(=O)c1cc(NCc2c(F)cccc2Cl)ccc1N1CCOCC1
3% | O=C(NC(C(=O)O)c1ccccc1)c1ccc(S(=O)(=O)N2CCOCC2)cc1 (configuration not stated)
1% | CC1=CC(=O)C2=C(C)CC[C@@H]3[C@@H](OC(=O)[C@H]3C)[C@H]12
14µM* | CC(=O)N1c2c(cc(Br)cc2S(=O)(=O)N2CCN(C(=O)c3ccco3)CC2)CC1C (configuration not stated)
-19% | Cc1nc(NC(=O)C2CCCC2)sc1Cc1ccc2c(c1)OCO2
-15% | Cc1cc2nc(C)n(CCCNC(=O)Nc3cccc4ccccc34)c2cc1C
-13% | COc1cc(CNn2nnnc2N)ccc1OCC(=O)NC(C)(C)C
-20% | CCOc1ccc2c(c1)c(N=Nc1cccc(C(=O)O)c1)c(O)n2C
8.9µM* | O=C(NC1CCCCC1)c1ccc(N2CCCC2=O)cc1
-22% | CCN(CC)c1ccc(NC(=O)Nc2cccc(C(C)=O)c2)cc1

Following part
HPGD block | smiles
u | COc1ccc(/C(O)=C/Sc2nnc(Cc3ccccc3)o2)cc1
-16% | CCc1nnc(NC(=O)CSc2nnc(-c3cc4ccccc4cc3O)n2CCOC)s1
-13% | Cc1cccc2sc(NC(=O)C3CCCN(S(=O)(=O)c4cccc5nonc45)C3)nc12 (configuration not stated)
u | COc1ccc(NC2=Nc3ccccc3N3C2=Nc2c(c(C)nn2-c2ccc(C)cc2)C3c2cccnc2)cc1 (configuration not stated)
-2% | CCOc1ccc(S(=O)(=O)NCCC(=O)OCN2C(=O)c3ccccc3C2=O)cc1
-5% | O=C(CN1CCN(Cc2ccccc2)CC1)N/N=C/C=C/c1ccco1
-2% | O=C(c1ccncc1)N1CCC2(CC1)CCN(C(c1ccccc1)c1ccccc1)CC2
-15% | CC(C)(Oc1ccc(-c2ccco2)cc1)C(=O)O
-4% | CCc1ccc(S(=O)(=O)NCCc2cn3ccccc3n2)s1
-17% | COCCNC(=O)CN1c2ccccc2CC1C (configuration not stated)

Continuation:
HPGD block | smiles
-7% | CCOc1ccc(NC(=O)C2CCCN(S(=O)(=O)c3c(C)nn(C)c3C)C2)cc1 (configuration not stated)
u | Cc1ccc2cc3c(nc2c1)N(Cc1ccco1)CC3
-8% | Cc1cc(OC(C)C(=O)N/N=C/CC(C)c2ccccc2)ccc1Cl (configuration not stated)
-10% | O=C(Nc1ccc2c(c1)OCCO2)C1CCCN(c2ncccn2)C1 (configuration not stated)
-6% | COc1ccc2c(c1)O[C@@H](c1cccc(C(F)(F)F)c1)[C@H](OC(=O)NCc1ccc3c(c1)OCO3)C2=O
-15% | O=C(N/C=C/c1ccccc1)Nc1ccc(Cl)cc1
-5% | COC(=O)C1=C(C(=O)OC)[C@@H]2Nc3ccccc3[C@@]23C[C@@H](C(=O)OC)N(S(=O)(=O)c2ccc(C(F)(F)F)cc2)C3=N1
-14% | CCOC(=O)N1CCN(c2nc(C)c3c(n2)CC(C)CC3=O)CC1 (configuration not stated)
u | CN(CCO)c1cc(Sc2nc3ccccc3s2)c2nonc2c1[N+](=O)[O-]
-9% | COc1cccc(OCCNC(=O)c2cccc(OC)c2)c1

Going on with the list:
HPGD block | smiles
-12% | Cc1ccccc1-n1nnnc1SC1CCOC1=O (configuration not stated)
2.5µM* | COCCNC(=O)c1ccc2c(c1)ncn2-c1ccc(F)c(F)c1
-11% | O=C(Cn1cc2c(n1)CCCC2)NCc1cccnc1
-1% | COc1ccc(CCNC(=O)CN2C(=O)c3ccccc3S2(=O)=O)cc1
-21% | COc1ccc2nc(SC(C(=O)c3ccccc3)c3ccccc3)nc(C)c2c1 (configuration not stated)
-24% | COc1cc(OC)cc(C(=O)N2CCN(S(C)(=O)=O)CC2)c1

A portion of the library; the hit share may differ from the screen's.
